Source: PubChem (SRMLSC)
H5N1 antiviral: MDCK cell protection from H5N1 avian flu; inhibition, % at 50 µM; cytopathic effect, luminescence, 72 h; stronger effect = higher value; no value below 0 was filed and about half of the inactive calls have no number; reference of the scale not given here; actives 0.07% (n = 96,000); in the data active = inhibition above about 25%
Active calls of the source: *; i = inactive.

SMILES | H5N1 antiviral
Cc1nc(C)c(-c2csc(Nc3cccnc3)n2)s1 | 0.2
c1ccc2c(c1)nc(N1CCOCC1)c1c3ccccc3[nH]c21 | 6.7
Cn1c(=O)c2c(nc(Br)n2CCSc2ncccn2)n(C)c1=O | 2.0
CC12CC(NC(=O)N1Cc1ccccc1)c1ccccc1O2 (stereo unspecified) | 1.9
O=c1cc(CN2CCN(c3ccccc3)CC2)c2cc(O)c(-c3ccccc3)cc2o1 | 4.3
Cc1nc(Nc2ccc3c(c2)OCCO3)c2nnn(Cc3ccccc3Cl)c2n1 | 2.6
Cc1ccc(OCC(=O)NCc2ccco2)cc1C | 0.5
CCN(CC)CCNc1nc2c(c(=O)[nH]c(=O)n2C)n1CC(O)COc1ccc(Cl)cc1Cl (stereo unspecified) | i
Cc1c(CN2CCC(C)CC2)c(=O)n(-c2ccccc2)n1C | i
CCOC(=O)c1c(NC(=O)Nc2ccccc2)sc(C)c1C | i
Cc1ccc(-c2nnc(CSc3nncn3N)o2)cc1 | i
Cc1cc(=O)[nH]c(N2CCc3ccccc3C2)n1 | 1.0
COc1ccc(C2(C(=O)O)CCCC2)cc1 | i
CC1CN(C(=O)c2ccccc2)OC(c2ccc3c(c2)OCO3)O1 (stereo unspecified) | 0.2
CC1CCc2nn(CC(=O)NCc3ccc(F)cc3)cc2C1 (stereo unspecified) | i
CCOc1ccccc1N/C=C/C(=O)C(C)(C)C | 0.5
CCC(=NCc1ccco1)c1c(O)n(C2CCCCC2)c(=O)[nH]c1=O | 2.6
CCNC(=O)NC(=O)COC(=O)c1ccccc1SCC(=O)NC(=O)NCC | i
N=c1c(C(=O)NC2CCCC2)cc2c(=O)n3ccccc3nc2n1C1CCCC1 | 1.3
C/C(=N\Nc1nccnc1Cl)c1ccc([N+](=O)[O-])cc1 | i
CC(=O)NCCn1c(SCc2cc(F)ccc2F)nc2ccccc2c1=O | 3.2
CCCOC(=O)Nc1ccccc1C(N)=O | i
COc1ccccc1C(=O)N1CCN(C(=O)COc2cccc(C)c2)CC1 | i
COC(=O)c1c(C)oc2c1cc(NS(=O)(=O)c1cccs1)c1ccccc12 | 0.2
COc1cc2c(C#N)c(N3CCOCC3)nc(N)c2c(N)n1 | 1.1
Cc1nnc(C)n1/N=C/C=C/c1ccccc1 | 1.0
CCNC(=S)N1CCN(CCN=CC2=C(O)CC(c3ccco3)CC2=O)CC1 (stereo unspecified) | 0.6
CCCS(=O)(=O)C(=C1NCCO1)S(=O)(=O)CCC | 0.5
Cc1cccc(C)c1OC(=O)CN(c1ccc(Cl)cc1)S(C)(=O)=O | i
Cc1cc(NC(=O)CSc2nc(-c3ccccc3)cs2)no1 | i
CC(=O)c1ccc(NC(=O)Nc2ccc(Cl)cc2)cc1 | i
CCOC(=O)C1CCN(C(=O)CSC2=NCCS2)CC1 | 0.4
COc1ccc(OCC(=O)c2c(O)c3ccccc3oc2=O)cc1 | 3.5
O=C(Nc1ccc(Cl)c(Cl)c1)C1=Cc2ccccc2OC1 | 4.6
COc1ccccc1NC(=O)CSc1ncn(-c2ccccc2)n1 | i
COc1ccc(-c2noc(CCC(=O)NC3CCCCC3)n2)cc1OC | i
COc1cccc(C(=O)Nc2nc3ccccc3[nH]2)c1 | i
Cc1cccc(CN2CCC(CNC(=O)C3CCCN(S(=O)(=O)c4cnc[nH]4)C3)CC2)c1 (stereo unspecified) | i
CCOc1cc2[nH]c(=S)n(CCOC)c(=O)c2cc1OCC | i
CCN1CCCC1CNC(=O)CSCc1nc(-c2ccccc2C)oc1C (stereo unspecified) | i
COC(CNC(=O)c1ccc2c(c1)nc(C)n2-c1cccc(F)c1)OC | i
CCCn1c(N)c(C(=O)CSc2nnc(C)n2Cc2ccccc2)c(=O)n(C)c1=O | i
CCOC(=O)c1cnn(-c2ccc(C)cc2)c1N | i
COc1ccc(-c2cc(C(=O)Nc3cc(OC)c(OC)c(OC)c3)no2)cc1OC | i
O=C(O)c1ccccc1OCCOCCOc1ccccc1C(=O)O | i
Cc1ccc(C2C(S(C)(=O)=O)=C(O)C(=O)N2c2ccccc2)cc1 (stereo unspecified) (tested in a mixture with another compound) | i
O=C(O)CN1C(=O)SC(Nc2ccc(C(=O)O)cc2)C1=O (stereo unspecified) | i
COc1ccccc1/C=N/n1c(C)nnc1-n1nc(C)cc1C | 0.3
CCn1c(CNC(=O)c2cccs2)nnc1SCC(=O)NCCc1ccccc1 | 2.7
CCOC(=O)c1sc(-c2ccc(Br)cc2)cc1N | i
Additional results.
SMILES | H5N1 antiviral
COc1ccccc1C1/C(=C(/O)c2ccccc2)C(=O)C(=O)N1CC(C)C (stereo unspecified) | i
N#CC(c1ccc(Cl)cc1)c1nc2ccccc2nc1C(F)(F)F (stereo unspecified) | 0.4
O=C(NO)C1CC2C=CC1C2 (stereo unspecified) | i
Cc1ccc(N(C(=O)Cn2nnc(-c3ccc(C)o3)n2)C(C(=O)NC2CCCC2)c2ccco2)cc1 (stereo unspecified) | i
[N-]=[N+]=CC(=O)CNC(=O)[C@@H](Cc1ccccc1)N1C(=O)c2ccccc2C1=O | 0.3
CC1=NC(C)Cc2ccccc21 (stereo unspecified) | 0.4
CCOC(=O)C1=C(CC)OC(N)=C(C#N)C1c1cccs1 (stereo unspecified) | i
Cn1ncc([N+](=O)[O-])c1C(=O)Nc1ccc2c(c1)OCCO2 | 0.2
COc1ccccc1NC(=S)NCc1ccco1 | 0.2
CCOC(=O)c1c(C)n(C)c2ccc(OCC(O)CN3CCN(C)CC3)cc12 (stereo unspecified) | 1.4
COCCOC(=O)C1=C(N)OC2=C(C(=O)CC(C)(C)C2)C1c1cccnc1 (stereo unspecified) | i
CCC(C)N(C(=O)c1csnn1)C(C(=O)NCc1ccc(F)cc1)c1ccco1 (stereo unspecified) | 0.6
O=c1c2ccccc2nc2c3ccccc3c(NCc3ccco3)nn12 | 0.8
CCOc1ncccc1C(=O)NCc1ccc(OC)cc1 | i
O=C(CSc1oc(-c2ccco2)nc1S(=O)(=O)c1ccc(Cl)cc1)NCC1CCCO1 (stereo unspecified) | 0.1
CCC(=O)N1CCN(C(C)=O)C1c1ccccc1 (stereo unspecified) | i
CCOC(=O)c1cncc(C(=O)O)c1 | i
Cc1nc2ccccc2c(=O)n1-c1ccccn1 | 0.7
O=S(=O)(Nc1nc2c(s1)CCCC2)c1ccc2ccccc2c1 | 1.5
CC(C)(C)CC(=O)NCc1ccc(F)cc1 | 0.2
COc1ccc2c(Cl)c(-c3nnc(SCC(N)=O)n3C)sc2c1 | 1.6
COc1ccc(S(=O)(=O)CCC(=O)N2CC(=O)N(CCc3ccccc3)C(=O)C2)cc1 | 0.1
N#Cc1nc(-c2ccco2)oc1NCCN1CCOCC1 | 0.4
Cn1c(=O)c2c(nc(Br)n2CCc2ccccc2)n(C)c1=O | 0.3
CCS/C(N)=N/N=C/c1cc(C)ccc1O | i
COc1ccc(C(c2sc3ncnn3c2O)N2CC(C)OC(C)C2)cc1OC (stereo unspecified) | 0.8
O=C1CC(c2ccccc2)CC(O)=C1C=NC1CCCCCC1 (stereo unspecified) | i
COCCCNC(=O)Cc1ccccc1OC | i
O=C(OC1CCCCC1=O)c1cccc(S(=O)(=O)NCc2ccccc2)c1 (stereo unspecified) | 0.2
O=S(=O)(c1ccccc1)n1ccc2cccnc21 | i
Cc1ccc(C(=O)c2coc3ccc(O)c(CN4CCN(C)CC4)c23)cc1 | i
Nc1nonc1-c1nc2ccccc2[nH]1 | 1.3
Cc1cc(C)n(CC(=O)n2c3c(c4ccccc42)CCCC3)n1 | 0.8
CCN(CC)S(=O)(=O)c1cc([N+](=O)[O-])ccc1NNC(=O)Nc1ccc(F)cc1 | i
CCCS(=O)(=O)N1CCCC(C(=O)N2CCC(Cc3ccccc3)CC2)C1 (stereo unspecified) | i
COc1ccc(NC(=O)c2cc3ccccn3n2)cc1 | i
CC(=O)NC1(C(F)(F)F)C(=O)NC(C)=C1C#N (stereo unspecified) | i
CSc1nc(NC(C)=O)nc(C)c1Cl | 0.1
CCN(CC)S(=O)(=O)c1ccc2[nH]cc(C(=O)NCCC3=CCCCC3)c(=O)c2c1 | 1.6
Cc1ccc2[nH]c(=O)c(-c3noc(C(C)C)n3)cc2c1 | 0.3
CC1(C)CC(=O)C2=C(C1)NC(SCC(=O)Nc1ccccc1)=C(C#N)C21CCCCC1 | 0.9
O=S(=O)(NCCC1=CCCCC1)c1cccc2nsnc12 | 0.4
Cc1ccc(-c2csc3nc(C)n(-n4cccc4)c(=O)c23)o1 | 0.3
NC(=O)C1(N2CCCCC2)CCN(C(=S)Nc2ccc(Cl)cc2)CC1 | i
N#CCc1ccc(C(=O)c2ccccc2)s1 | i
CC(C)C(=O)Nc1ccc(NC(=O)c2cccs2)cn1 | 2.9
CCN(CC)CCn1c(OC)cc(=O)[nH]c1=O | i
COc1ccccc1OCC(=O)N1CC2(C)CC1CC(C)(C)C2 (stereo unspecified) | i
Fc1ccc(Br)cc1C1C=C(c2ccc(Br)cc2)Nc2ncnn21 (stereo unspecified) | i
O=c1c2cn[nH]c2nc(SCc2ccc3c(c2)OCCO3)n1-c1ccccc1 | 0.2
Remaining list, next part.
SMILES | H5N1 antiviral
CCOC(=O)c1c(C)[nH]c(C(=O)C(Cc2ccccc2)N(C)C)c1C (stereo unspecified) | i
CC(C)(C)OC(=O)N1CCCC1C(=O)NC(Cc1ccccc1)C(=O)O (stereo unspecified) | i
Cc1ccc(C2C(C#N)=C(N)SC(N)=C2C#N)c(C)c1 | i
O=P(OCC(F)(F)C(F)F)(N1CCOCC1)N1CCOCC1 | 0.4
Cc1nnc(SCC(=O)Nc2cc(C(F)(F)F)ccc2N2CCOCC2)o1 | 0.2
CCN(CC)C(=O)C1CCCN(C/C(C)=C/c2ccccc2)C1 (stereo unspecified) | 0.3
CCOc1cc(C)c(Cl)cc1S(=O)(=O)NCc1ccc2c(c1)OCO2 | i
COc1ccc(C(C(=O)NC2CCCC2)N(Cc2ccc(F)cc2)C(=O)c2ccn[nH]2)cc1OC (stereo unspecified) | i
Cc1nc2cc(NC(=O)N3CCN(c4ccccn4)CC3)ccc2o1 | i
Cc1nc(NC(C)C)c2oc3ccccc3c2n1 | 0.4
COc1ccc(C(=O)Oc2cccnc2)cc1 | 1.0
Cc1cc(N2CCCCC2)c(F)cc1[N+](=O)[O-] | i
COC(=O)C(C)Sc1n[nH]c(=S)s1 (stereo unspecified) | 0.1
CCc1ccccc1NC(=O)c1cc(-c2cccc(O)c2)on1 | 2.8
Cc1ccc(S(=O)(=O)Oc2ccc(C(c3c(C)[nH][nH]c3=O)c3c(C)[nH][nH]c3=O)cc2)cc1 | 0.1
Cc1ccc(C(=O)N(CC(=O)NC2CCCC2)Cc2cccs2)s1 | 0.1
CCSc1nnc2c(n1)OC=Nc1ccc(Br)cc1-2 | i
CSc1ccccc1NC(=O)COc1ccc(S(=O)(=O)N2CCCC2)cc1 | 0.3
Cc1cc(N2CCN(c3ccccn3)CC2)n2c(nc3ccccc32)c1C#N | 1.7
CCN1CCN(c2nc(-c3ccccn3)nc3ccccc23)CC1 | 1.6
COC(=O)Nc1ccc(OCc2ccccc2)cc1 | 0.6
Cc1cc(Cl)c(S(=O)(=O)NCC2CCCO2)cc1OCC(N)=O (stereo unspecified) | i
CCC(=O)N1CCN(c2ccc(NC(=O)c3ccco3)cc2)CC1 | i
COC(=O)n1c(=O)oc2cc(S(=O)(=O)N3CCCCC3)ccc21 | 1.4
CC(Oc1ccc(-c2ccccc2)c(F)c1)c1ccn(S(=O)(=O)c2ccc(F)cc2)n1 (stereo unspecified) | 4.0
CCOC(=O)c1ccc(Nc2nc(=O)c3cccnc3s2)cc1 | i
COc1ccc(CC(CC(=O)O)C(=O)Nc2ccccc2)cc1 (stereo unspecified) | 0.3
CCNc1nc(NC(C)(C)C)nc(N(C#N)CC)n1 | 0.9
COc1ccc(-c2cc(C(=O)N/N=C/c3sccc3C)c3ccccc3n2)c(OC)c1 | i
O=C(NCC(c1ccco1)N1CCCC1)c1ccccc1F (stereo unspecified) | 0.3
COc1ccc(/C=N/n2cnnc2)cc1COc1ccccn1 | 0.4
O=C(OCc1nnc(-c2ccccc2)o1)c1ccc2c(c1)OCO2 | 0.9
CCCCSc1nnc(-c2cc(Br)ccc2N)c(=O)[nH]1 | i

Molecules above with an aryl thioether with sulfur outside any ring:
SMILES | H5N1 antiviral
Cn1c(=O)c2c(nc(Br)n2CCSc2ncccn2)n(C)c1=O | 2.0
Cc1ccc(-c2nnc(CSc3nncn3N)o2)cc1 | i
CCNC(=O)NC(=O)COC(=O)c1ccccc1SCC(=O)NC(=O)NCC | i
CC(=O)NCCn1c(SCc2cc(F)ccc2F)nc2ccccc2c1=O | 3.2
Cc1cc(NC(=O)CSc2nc(-c3ccccc3)cs2)no1 | i
COc1ccccc1NC(=O)CSc1ncn(-c2ccccc2)n1 | i
CCCn1c(N)c(C(=O)CSc2nnc(C)n2Cc2ccccc2)c(=O)n(C)c1=O | i
CCn1c(CNC(=O)c2cccs2)nnc1SCC(=O)NCCc1ccccc1 | 2.7
O=C(CSc1oc(-c2ccco2)nc1S(=O)(=O)c1ccc(Cl)cc1)NCC1CCCO1 (stereo unspecified) | 0.1
COc1ccc2c(Cl)c(-c3nnc(SCC(N)=O)n3C)sc2c1 | 1.6
CSc1nc(NC(C)=O)nc(C)c1Cl | 0.1
O=c1c2cn[nH]c2nc(SCc2ccc3c(c2)OCCO3)n1-c1ccccc1 | 0.2
Cc1nnc(SCC(=O)Nc2cc(C(F)(F)F)ccc2N2CCOCC2)o1 | 0.2
COC(=O)C(C)Sc1n[nH]c(=S)s1 (stereo unspecified) | 0.1
CCSc1nnc2c(n1)OC=Nc1ccc(Br)cc1-2 | i
CSc1ccccc1NC(=O)COc1ccc(S(=O)(=O)N2CCCC2)cc1 | 0.3
CCCCSc1nnc(-c2cc(Br)ccc2N)c(=O)[nH]1 | i

The list is partial, so the mix of outcomes need not match the whole.
